Assay outcomes deposited in PubChem by National Center for Advancing Translational Sciences (NCATS).
D2 ag – Beta-Arrestin HTS for Positive Allosteric Modulators of the Human D2 Dopamine Receptor: Agonists | D(2) dopamine receptor (Homo sapiens), P14416 | DiscoveRx PathHunter D2 beta-arrestin, luminescence, 90 min; 100% = 57 uM dopamine signal | activation, % (no concentration beside the values) | hit rate 0.084% among 360,000; in the data active = activation above about 40%; inconclusive = about 15% to 40%; inactive = below about 15%; also: compound concentration not given in the record; the text of the record calls up to 30% inactive
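DiscoveRx PathHunter D2 beta-arrestin cells (2,100/well) attached overnight, then compound-stimulated 90 min at 37 C in HBSS/10 mM HEPES/0.1% Tween-20 buffer; beta-galactosidase complementation read by luminescence after 1 h at ambient temperature. Dopamine 57 uM final (EC100) as control.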
Six1-Eya2 blk – qHTS Assay for Inhibitors of the Six1/Eya2 Interaction; AlphaScreen GST-Six1/His-Eya2 binding, biochemical; hits give low values; control for the full effect not named in the record; activity change, % (test concentration not listed); hit rate 0.56% among 360,000; in the data active = activity change below about -65%; inconclusive = about -30% to -65%; inactive = above about -30%; also: % is scaled to controls: 0 for no effect and ±100 for the full control effect; compound concentration not given in the record
Target sequence (O00167 whole entry, looked up): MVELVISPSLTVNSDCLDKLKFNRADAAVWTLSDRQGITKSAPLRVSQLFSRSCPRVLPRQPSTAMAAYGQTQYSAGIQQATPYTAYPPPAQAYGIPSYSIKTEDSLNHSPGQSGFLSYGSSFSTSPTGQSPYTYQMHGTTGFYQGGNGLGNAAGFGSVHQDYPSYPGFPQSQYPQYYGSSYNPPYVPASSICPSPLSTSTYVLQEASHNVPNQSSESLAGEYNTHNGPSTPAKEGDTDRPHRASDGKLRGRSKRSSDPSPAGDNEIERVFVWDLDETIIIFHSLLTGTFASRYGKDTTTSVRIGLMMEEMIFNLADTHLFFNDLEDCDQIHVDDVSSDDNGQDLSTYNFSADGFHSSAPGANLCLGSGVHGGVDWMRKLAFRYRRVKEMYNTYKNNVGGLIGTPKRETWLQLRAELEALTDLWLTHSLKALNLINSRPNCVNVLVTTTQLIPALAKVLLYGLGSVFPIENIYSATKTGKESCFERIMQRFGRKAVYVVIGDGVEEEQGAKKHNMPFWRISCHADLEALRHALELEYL
Target sequence (Q15475 whole entry, looked up): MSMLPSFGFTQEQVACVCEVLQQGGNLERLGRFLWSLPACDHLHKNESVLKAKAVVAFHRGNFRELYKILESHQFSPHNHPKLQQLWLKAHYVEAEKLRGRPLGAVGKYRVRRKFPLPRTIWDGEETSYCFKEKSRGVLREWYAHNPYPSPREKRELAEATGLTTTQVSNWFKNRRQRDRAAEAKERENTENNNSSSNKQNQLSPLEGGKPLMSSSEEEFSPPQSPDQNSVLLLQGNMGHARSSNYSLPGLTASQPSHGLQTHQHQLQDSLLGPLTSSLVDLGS
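AlphaScreen luminescence read after one hour at 37 °C in darkness. Pin-transferred compounds met GST-Six1 and His-Eya2 protein (5X stock 250 nM/500 nM) plus glutathione donor and Ni-chelate acceptor beads (5X, 50 ug/mL).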
CtBP-E1A inh – qHTS Assay for Inhibitors of the CtBP/E1A Interaction; CtBP / adenovirus E1A interaction (AlphaScreen); AlphaScreen GST-E1A/His-CtBP binding, 1536-well; hits give low values; control for the full effect not named in the record; activity change, % (concentration not given with the values); hit rate 0.49% among 340,000; in the data active means activity change below about -65%; inconclusive means about -30% to -65%; inactive means above about -30%; also: % is scaled to controls: 0 for no effect and ±100 for the full control effect
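AlphaScreen with 125 nM GST-E1A and 125 nM His-CtBP (5X stocks) in Tris pH 8.0, 300 mM NaCl, BSA, Tween 20, TCEP. Compounds preincubated 2 h at 37 deg C, then glutathione donor/nickel acceptor beads added for 1 h at 37 deg C in dark.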
PINK1 modulator – A Quantitative High throughput Screen to Identify Chemical Modulators of PINK1 Expression; AID 624263, 2012; PINK1 immunofluorescence, high-content cytometry, 24 h; Potency, µM (highest dose often 76.6 µM), for the others: at the top dose activation (PINK1 increase), hits mostly activators; hit rate 0.2% among 410,000; active = well fitted activation curve with a large enough effect; inconclusive = small, poorly fitted or top-dose-only effect; inactive = flat fitted curve, though single readings scatter; cell line not stated here;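 also: potency is read from the fitted curve at half-maximal effect; % of control where 0% means no effect; nearly all actives have a fitted effect of over 65% in size; a mitochondrial uncoupler was the plate control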
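PINK1 protein level read as immunofluorescence by microplate cytometer in a fixed, stained stable cell line after 24 h exposure to five compound concentrations, with CCCP as control.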
D2 potentiator – Beta-Arrestin HTS for Positive Allosteric Modulators of the Human D2 Dopamine Receptor: Potentiators; hit rate 0.23% among 360,000; potentiation, % (concentration not given with the values); D(2) dopamine receptor (Homo sapiens), P14416; DiscoveRx D2 beta-arrestin cells, luminescence, 90 min; 100% = 57 uM dopamine signal; AID 624464, 2012; active = potentiation of 50% or more; inconclusive = 30% to 50%; inactive = 30% or less;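 also: compound concentration not given in the record; tested on top of an EC20 dose of dopamine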
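PathHunter beta-arrestin assay in DiscoveRx D2 cells. Compounds were added with an EC20 of dopamine (50 nM final) for 90 min at 37 deg C. Luminescence was read 1 h after detection reagent, with 57 uM dopamine as the EC100 control.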
TRPML1 ag – qHTS for Agonists of the Human Mucolipin Transient Receptor Potential 1 (TRPML1). hit rate 0.12% among 410,000. Mucolipin-1 (Homo sapiens), Q9GZU1. activation, % (no concentration beside the values). AID 624414, 2012. TRPML1-expressing cells, Ca2+ dye fluorescence, FDSS; host cell line not named in the record; reference of the full effect not given here; in the data active = activation above about 50%; inconclusive = about 30% to 50%; inactive = below about 30%; also: 0% is about no effect; the text of the record puts the active cut at 80%
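In this qHTS format, compounds were pin-transferred onto Ca8-dye-loaded TRPML1-DL cells induced with Tet overnight, and intracellular Ca2+ fluorescence was recorded kinetically for 110 s after a 10 s baseline. A subsequent 4uM final 54-4 (EC80) addition followed by a second 110 s read served as the antagonist phase.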
Numbers without * were called inactive; ? = inconclusive; nt = not tested or not shown; & = joins results of further samples; [ ] = remark or other dose.

SMILES | D2 ag | Six1-Eya2 blk | CtBP-E1A inh | PINK1 modulator | D2 potentiator | TRPML1 ag
CCC(=O)N/C(=N\OCc1ccc(F)cc1)c1nonc1NC(=O)CC | -4.5 | 5 | 5 | -3.2% | 10 | 0.2
COc1ccc(C(O)c2nc(-c3cc(F)cc(Cl)c3)cs2)cc1 (stereo not drawn) | 13 | 14 | 10 | 7.3% | -2 | -0.8
O=C(CNC(=S)N(Cc1ccc(F)cc1)C1CCCCC1)NCCN1CCOCC1 | -2.9 | 4 | 5 | -0.5% | 5 | 0.5
C=CCNc1nc(-c2ccccc2)nc(-n2ccnc2)n1 | 4.4 | 6 | 0 | -0.2% | -12 | 0.3
COc1ccc(NC(=O)CSc2nnc(Cn3cnc4ccccc43)n2C)cc1 | 1.0 | 1 | -2 | -2.0% | 10 | -0.9
COC(=O)C(C)(N)Cc1ccc(O)cc1 (stereo not drawn) | -5.1 | 2 | 0 | 5.9% | -10 | 0.3
Clc1ccc(-c2nnc(NCc3ccccc3)c3ccccc23)cc1 | -4.7 | 1 | 10 | ? | -8 | 0.2
Cc1c(C(=O)O)sc2ncn(C)c(=O)c12 | -2.6 | -4 | 7 | -1.3% | -2 | -1.1
COc1cc(Br)c(CCNC(=O)c2ccco2)cc1OC | -2.3 | -7 | nt | 0.5% | -6 | 0.4
CCN1CCN(S(=O)(=O)c2ccc(Cl)c(C(=O)N(C)Cc3ccc(Cl)cc3Cl)c2)CC1 | -0.2 | 1 | -2 | -1.5% | -30 | 20
O=C(CCc1nnc(CCCCc2ccccc2)o1)NC(c1cccnc1)C(F)(F)F (stereo not drawn) | 0.5 | 10 | 8 | 1.5% | -3 | 0.7
Cc1ccc(C(=O)N2CCN(c3ccc([N+](=O)[O-])c(NCc4cccnc4)c3)CC2)cc1 | 3.3 | -4 | 2 | -1.6% | -8 | 1.5
COc1ccccc1-c1nc(-c2ccc(Br)o2)no1 | -1.4 | 6 | 2 | 1.4%&3.8% | -5 | 0.4&0.4
COc1ccc(NC(=O)CN2CCN(C3c4ccccc4-c4ccccc43)CC2)c(OC)c1 | -1.4 | 5 | -3 | 1.9% | -11 | 2.0
COc1ccc(-n2c(SC(CN3CCCCC3)CN3CCCC3=O)nc3ccccc3c2=O)cc1 (stereo not drawn) | -6.4 | 0 | -3 | 2.9% | -24 | 0.2
N#Cc1nc(-c2ccccc2F)oc1N1CCN(C(=O)c2ccco2)CC1 | 0.7 | -13 | -2 | 0.0% | ? | 1.1
CCOc1ccc(S(=O)(=O)Nc2cccc(C(=O)N3CCN(c4ccccn4)CC3)c2)cc1 | 5.7 | -2 | -2 | -1.1% | 5 | -0.8
COCCNC(=O)CN1CCN(Cc2cccc(Cl)c2)C1=O | -0.1 | -3 | 0 | 4.2% | -7 | -0.6
CC(C)c1cc(NCc2ccccn2)n2c(nc3ccccc32)c1C#N | 1.0 | -5 | -10 | 13% | 4 | -0.6
CCCNC(=O)Cn1cnc2sc(C(=O)NCCCN3CCOCC3)c(C)c2c1=O | -4.5 | 2 | 4 | 0.4% | -10 | 0.0

Brought forward from above: 5 compounds, then new ones.
SMILES | D2 ag | Six1-Eya2 blk | CtBP-E1A inh | PINK1 modulator | D2 potentiator | TRPML1 ag
N#Cc1nc(-c2ccccc2F)oc1N1CCN(C(=O)c2ccco2)CC1 | 0.7 | -13 | -2 | 0.0% | ? | 1.1
CCOc1ccc(S(=O)(=O)Nc2cccc(C(=O)N3CCN(c4ccccn4)CC3)c2)cc1 | 5.7 | -2 | -2 | -1.1% | 5 | -0.8
COCCNC(=O)CN1CCN(Cc2cccc(Cl)c2)C1=O | -0.1 | -3 | 0 | 4.2% | -7 | -0.6
CC(C)c1cc(NCc2ccccn2)n2c(nc3ccccc32)c1C#N | 1.0 | -5 | -10 | 13% | 4 | -0.6
CCCNC(=O)Cn1cnc2sc(C(=O)NCCCN3CCOCC3)c(C)c2c1=O | -4.5 | 2 | 4 | 0.4% | -10 | 0.0
CCN(CC)CCN(C(=O)c1c(F)cccc1F)c1nc2cc(C)cc(C)c2s1 | -1.5 | -10 | 1 | ? | -19 | -0.8
Cc1c(/C=C/C(=O)c2cccs2)cnn1C | -0.2 | 7 | 1 | 0.2% | 0 | 2.5
Cc1nc(-c2nnc(SCC(=O)Nc3cc(C(F)(F)F)cc(C(F)(F)F)c3)n2C)cs1 | -1.8 | 3 | 3 | 2.7% | -3 | 4.6
CCOC(=O)c1ccc(NC(=O)C(=O)NCC2CCCO2)cc1 (stereo not drawn) | -1.8 | 11 | -3 | 2.5% | -2 | 0.6
O=C(O)COc1ccc(/C=C/C(=O)c2ccc3ccccc3c2)cc1 | -21 | 4 | 14 | -1.2% | 1 | -0.3
COc1cccc(OCc2nnc(SCC(=O)NCc3ccco3)n2C)c1 | -2.1 | 4 | 0 | 0.6% | -2 | -0.5
O=C(O)CN1c2cccc3cccc(c23)S1(=O)=O | -3.7 | 9 | -1 | 1.4% | -2 | -0.5
COc1ccccc1-c1nnc(SCC(=O)Nc2oc(C)c3c(C)n[nH]c(=O)c23)n1C | -6.2 | -12 | 0 | -0.1% | -20 | -0.4
Cc1cc(OC(C)C(=O)NC(Cc2c[nH]c3ccc(O)cc23)C(=O)O)c2c(C)cc(=O)oc2c1 (stereo not drawn) | 12 | -2 | 3 | 0.6% | 11 | nt
CCCCCn1c(SCC(=O)OCC)nc2cc(C(=O)N3CCC(C(N)=O)CC3)ccc2c1=O | -2.7 | -9 | -8 | ? | -1 | -0.8
O=C(c1nn(-c2ccccc2)c(=O)c2ccccc12)N1CCN(c2ncccn2)CC1 | -0.7 | 0 | nt | 0.7% | 0 | 1.7
CSc1cccc(CN2CCCC(CNC(=O)c3ccc(F)cc3)C2)c1 (stereo not drawn) | -3.1 | -7 | nt | -0.4% | -14 | 0.7
O=C1OC(c2ccccc2)Sc2ccccc21 (stereo not drawn) | -1.1 | 12 | 20 | -0.1% | -9 | 2.8
COc1cc(NC(=O)c2cccs2)ccc1NC(=O)c1cc2ccccc2o1 | -1.8 | 2 | 6 | 4.9% | -4 | -0.3
Cc1noc(C(=O)Nc2c(C)n(C)n(-c3ccccc3)c2=O)c1Cl | -1.6 | 3 | 8 | 4.4% | -10 | -0.6
COCCCNC(=S)N(CCO)Cc1cc2cc3c(cc2[nH]c1=O)OCCO3 | -4.2 | -4 | 0 | 0.3% | 1 | -0.6
CCC1C(=NO)C(CC)C(c2ccccc2)NC1c1ccccc1 (stereo not drawn) | -1.0 | -9 | -3 | 4.5% | -7 | 1.6
O=C(CCNS(=O)(=O)c1cccc2nsnc12)NC1CCN(Cc2ccccc2)CC1 | -2.2 | 6 | 0 | -1.1% | -10 | -0.8
COc1ccc(N2CCN(C(=O)COC(=O)c3ccccc3OCc3ccc(F)cc3)CC2)cc1 | -1.1 | -8 | -27 | -1.3% | -17 | 2.5
Cc1cc(C(=O)N2CCc3ccccc3C2)on1 | -4.4 | 8 | 0 | -1.1% | -3 | -0.7
CC(/C=N/n1c(-c2ccccc2)n[nH]c1=S)=C\c1ccco1 | -1.6 | -11 | 3 | -1.9%[38.3 µM] | 4 | 1.2
O=C(Nc1cccc(-c2nc3ncccc3o2)c1)c1ccccc1 | -0.4 | -18 | nt | 2.0% | 4 | 1.6
Cc1nn(-c2ccccc2)c(Cl)c1/C=N/NC(=O)c1ccc(CNc2ccccc2)o1 | -0.2 | 1 | -5 | 3.0% | 6 | 0.0
CCN(CCCNC(=O)CN(C)S(=O)(=O)c1ccc2c(c1)CCC(=O)N2)c1cccc(C)c1 | 2.2 | -8 | -12 | -0.3%[38.3 µM] | 0 | -0.6
O=c1[nH]c(C2CCN(S(=O)(=O)c3ccc4c(c3)OCCO4)CC2)nc2c1nnn2Cc1cccc(F)c1 | -1.1 | -27 | -13 | 5.9% | -1 | 2.6
Cc1cccc(S(=O)(=O)NC(=O)C2(C)CCN2C(=O)Cc2ccc(Cl)cc2Cl)c1 (stereo not drawn) | -2.2 | 12 | 7 | 0.9% | -4 | -0.4
COc1cc(C(=O)NC2CC(C)(C)Cc3c2cnn3-c2ccccc2)cc(OC)c1OC (stereo not drawn) | 0.6 | 11 | 41 | 9.3% | -9 | 0.8
COc1cccc(-n2c(=O)c3ccccc3n3c(=S)[nH]nc23)c1 | -8.4 | 3 | -2 | 0.4% | -12 | -0.7
CC1Sc2ccc(S(=O)(=O)CCC(=O)NC3CCCCCC3)cc2NC1=O (stereo not drawn) | -0.6 | 2 | 5 | 0.9% | -2 | -0.1
CCCCN1CC(COCc2ccccc2)Oc2cccc(Oc3ccc(C)cc3)c2S1(=O)=O (stereo not drawn) | -7.0 | 5 | 3 | 1.3% | -9 | 2.3
Nc1ccccc1SC1CC(=O)N(c2ccc3c(c2)OCCO3)C1=O (stereo not drawn) | -0.8 | -5 | -13 | -0.2% | -5 | -0.5
Cc1cc(Br)ccc1NC(=O)CCSc1ccccc1 | -1.7 | -2 | -8 | nt | -3 | 1.7
O=C(CCn1cnnn1)Nc1ccccc1 | -5.7 | -12 | -5 | 1.8%&-0.3% | -3 | 1.1&0.5
COc1ccc(CNC(=O)c2cc(COc3c(F)cccc3F)on2)cc1OC | -1.2 | -2 | nt | 5.8% | -8 | 1.8
CC(=O)Nc1ccc2c(c1)C(=O)N(c1cccc(C)c1)C2=O | 2.1 | 4 | 1 | 7.0% | 0 | 0.9
CCOC(=O)c1c(NC(=S)NCC2CCCO2)sc(C)c1C (stereo not drawn) | -3.3 | 0 | 1 | 2.5% | -15 | -0.6
N#CC1=C2N=C(N)c3ccccc3N2C2=C(C(=O)CCC2)C1c1ccc(Cl)cc1 (stereo not drawn) | -3.3 | -12 | -8 | 1.6% | -5 | 1.4
Nc1ccccc1S(=O)(=O)c1ccccc1N | 0.9 | 1 | 8 | nt | 11 | 2.4

One compound at a time, as listed above. Order of values: D2 ag	Six1-Eya2 blk	CtBP-E1A inh	PINK1 modulator	D2 potentiator	TRPML1 ag
Listed for CCOC(=O)c1ccc(NC(=O)C(=O)NCC2CCCO2)cc1 (stereo not drawn) → -1.8	11	-3	2.5%	-2	0.6
Listed for COc1cccc(OCc2nnc(SCC(=O)NCc3ccco3)n2C)c1 → -2.1	4	0	0.6%	-2	-0.5
